# Assay outcomes (PubChem)
# Rango-impB inh: prevents formation of the Rango-importin beta complex; 0.031% of 340,000 active; Q14974; Potency, µM (titrated, usually from 92.2 µM), without a hit: at the top dose inhibition of complex formation; Rango CFP/YFP FRET sensor + importin beta, 45 min; AID 540263; active = rising FRET ratio curve, often small or poorly fitted; inconclusive = mostly compound fluorescence or quenching in the first reads; inactive = flat curves in all reads;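 further: potency means the concentration at half of the fitted maximal effect; 0% = DMSO wells and 100% = buffer wells lacking importin beta; nearly all actives have a fitted effect of over 15% in size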
# Target sequence (Q14974 whole entry, looked up): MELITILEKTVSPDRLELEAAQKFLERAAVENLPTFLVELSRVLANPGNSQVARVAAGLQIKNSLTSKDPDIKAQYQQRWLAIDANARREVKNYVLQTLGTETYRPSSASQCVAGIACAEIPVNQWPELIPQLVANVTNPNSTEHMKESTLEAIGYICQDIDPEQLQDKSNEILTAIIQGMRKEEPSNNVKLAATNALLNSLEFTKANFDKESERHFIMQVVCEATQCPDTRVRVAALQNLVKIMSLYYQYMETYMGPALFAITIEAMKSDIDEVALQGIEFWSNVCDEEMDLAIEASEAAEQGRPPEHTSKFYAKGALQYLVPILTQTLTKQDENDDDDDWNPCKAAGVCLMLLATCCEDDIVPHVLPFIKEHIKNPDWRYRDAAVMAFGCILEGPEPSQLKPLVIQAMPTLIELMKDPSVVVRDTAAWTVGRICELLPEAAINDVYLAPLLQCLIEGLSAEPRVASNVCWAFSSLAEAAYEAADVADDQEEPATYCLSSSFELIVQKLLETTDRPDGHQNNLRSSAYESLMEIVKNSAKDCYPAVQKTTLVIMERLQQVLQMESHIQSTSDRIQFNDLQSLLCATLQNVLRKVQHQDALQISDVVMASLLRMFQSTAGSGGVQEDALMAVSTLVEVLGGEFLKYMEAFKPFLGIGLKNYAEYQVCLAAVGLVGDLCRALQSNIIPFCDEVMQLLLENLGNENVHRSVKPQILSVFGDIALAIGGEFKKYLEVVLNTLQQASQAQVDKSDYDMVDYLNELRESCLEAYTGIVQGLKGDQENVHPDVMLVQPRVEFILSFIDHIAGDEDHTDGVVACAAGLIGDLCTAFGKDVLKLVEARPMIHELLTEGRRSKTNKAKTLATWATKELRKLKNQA
#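 FRET biosensor (snurportin 1 IBB flanked by EYFP and cerulean), 50 nM, with compound 5 min, then 0.125 microM importin beta in PBS, 1 mM DTT, 0.02% Tween-20, 0.1% BSA. CFP/YFP ratio read after 45 min at room temperature; pre-read flags interference.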
# miR-21 FLuc: raises the signal of a miR-21 reporter; HeLa miR-21 FLuc reporter, luciferase, 48 h; Potency, µM (titrated, usually from 38.3 µM), for the others: top-dose reporter change, positive = more light; 340,000 tested, under 10 active; active = well fitted rising curve with a large enough effect; inconclusive = small, poorly fitted or top-dose-only effect; inactive = no such curve, though single readings can be large or run the other way;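 further: % of control where 0% means no effect; miR-21 action dims this reporter so a rising signal means less miR-21 action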
#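 Compounds were titrated across several concentrations (up to approximately 40 uM) and incubated 48 hours with HeLa miR-21-FLuc reporter cells (miR-21 target sequence downstream of FLuc, endogenous miR-21). Readout was firefly luciferase luminescence after lytic detection reagent.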
# Rango release inh: prevents RanGTP from dissociating the Rango-importin beta complex | O95149+P62826 | Biochemical FRET Rango-importin beta, RanGTP-induced dissociation | Potency, µM (top dose mostly 46.1 µM), for inactives: top-dose activity change, negative = inhibition | 0.071% of 340,000 active; active means falling FRET ratio curve, often poorly fitted, with flat reads before Ran was added; inconclusive means other falling curves, or compound fluorescence or quenching; inactive means flat or rising ratio curve;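 further: potency means the concentration at half of the fitted maximal effect; % of control where 0% means no effect; nearly all actives have a fitted effect of over 45% in size; -100% = wells without RanGTP and RCC1; the record marks most hits as doubtful in a second field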
#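 Two FRET readings bracket the reaction: one 5 min after compound meets Rango–importin beta, another 45 min after RanGTP-RCC1 (0.6 uM Ran, 0.2 uM RCC1, 2 mM GTP) is added. Only the second defines inhibition.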
# GLA inh pH 4.5: blocks human alpha-galactosidase A at pH 4.5; P06280; purified enzyme, 4-MU-alpha-Gal fluorescence, pH 4.5; activity change, negative = inhibition, % at 105 µM; 230,000 tested, under 10 active; inconclusive = small, poorly fitted or top-dose-only inhibition, or a rising curve; inactive = flat fitted curve, though single readings scatter; no compound was filed as active;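 further: 0% = full activity with enzyme and -100% = basal without enzyme; dose as in the result columns while the protocol names 77 µM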
# An asterisk follows results filed as active; ? = inconclusive; . = no result given; & = joins results of further samples.
# Every second line gives: Rango-impB inh | miR-21 FLuc | Rango release inh | GLA inh pH 4.5
Fc1ccccc1Cn1nnc(-c2ccc3c(c2)OCO3)n1
→ 2.4% | -48% | 6% | 5
CCOc1ccc(S(=O)(=O)N2CCOCC2)cc1NC(=O)C1CSC2(C)CCC(=O)N12 (stereo not drawn)
→ 0.5% | . | -10% | .
c1ccc(-n2nnnc2NCCc2c[nH]c3ccccc23)cc1
→ 0.0% | 0% | -8% | 2
COC(=O)c1ccc(NC(=O)c2cccc(C)c2)cc1
→ -0.8% | -45% | -9% | .
CS(=O)(=O)c1ccc(NS(=O)(=O)c2ccc(Cl)c(C(=O)NCc3ccco3)c2)cc1
→ 0.2% | . | 7% | .
COC(=O)Nc1sc2c(c1C(=O)NC1CC1)CCCCCC2
→ 1.5% | -3% | -15% | 2
CCCCCC(=O)Nc1cccc(S(=O)(=O)NC2=NCCC2)c1
→ 2.8% | . | 2% | .
Cc1ccc(-c2nn(C)c(=O)c3ccccc23)cc1S(=O)(=O)NCCN(C)C
→ 2.7% | -4% | 20% | 4
CCc1ccc(N2CCN(C(=O)c3ccc(OC)c(OC)c3)CC2)cc1
→ 0.2% | 8% | -1% | -3
Cc1ccc(S(C)(=O)=O)cc1S(=O)(=O)Nc1ccccc1
→ -0.9% | -3% | 11% | -2
CCc1ccccc1NC(=O)CSc1nnc(-c2ccco2)n1N
→ ? | 1% | 6% | 0
CN(C(=O)c1ccncc1)c1nnc(-c2ccccn2)s1
→ 2.8% | -38% | -13% | 4
Nc1nc(NC(=O)CCC(=O)O)nn1-c1ccccc1
→ 0.9% | 1% | 10% | 2
O=C(OCCc1ccccn1)c1cccc([N+](=O)[O-])c1
→ 3.7% | . | -1% | .
Cc1cc(C)c(NC2=NCC(=O)N2C2CCCCC2)c(C)c1
→ 0.6% | -9% | 22% | -7
CC(C)(C)NS(=O)(=O)c1cccc2nsnc12
→ -0.7% | . | 5% | .
O=C1NC(=O)C(Nc2cccc3ccccc23)S1 (stereo not drawn)
→ 0.0% | -6% | -4% | -3
CCOC(=O)N1CCN(C(=O)c2ccc3c(=O)n(-c4ccccc4F)c(=S)[nH]c3c2)CC1
→ 4.6% | 7% | -1% | -1
CCOC(=O)c1c(NC(=O)CN2CCN(c3ccc(Cl)cc3)CC2)sc(C)c1C
→ -3.7% | -3% | -1% | -10
O=C(CSCc1ccccc1F)NCc1ccc(F)cc1
→ 1.8% | -17% | -8% | 7
O=C(NC(=S)Nc1ccccn1)c1cc(-c2ccccc2)nc2ccccc12
→ 0.3% | 2% | 8% | 4
Cc1ccc(C(=O)c2oc3ccccc3c2NC(=O)c2cc(-c3ccccc3O)n[nH]2)cc1
→ ? | -8% | ? | -8
CN1CCc2c(c3c(n2C)CCN(C)C3c2ccc(F)cc2)C1c1ccc(F)cc1 (stereo not drawn)
→ ? | -1% | -3% | -3
O=S(=O)(Nc1ncn[nH]1)c1ccc2ccccc2c1
→ 0.1% | -7% | 6% | 1
CCOC(=O)Cn1c(=NC(=O)CSC(C)=O)sc2cc(OC)ccc21
→ -0.4% | 4% | 0% | 2
COc1ccc(N=C(NN)c2ccc3ccccc3n2)cc1
→ -2.5% | ? | 0% | 6
COC(=O)/C=C1/S/C(=N/NC(=O)c2ccccc2OC)NC1=O
→ ? | -2% | ? | .
CCO[C@H]1OC(C(=O)N2CCN(Cc3ccccc3)CC2)=C[C@@H](c2cn(C(C)=O)c3ccccc23)[C@@H]1CCCO
→ 0.2% | 22% | -9% | -8
CCc1nc2ccccc2c(C(=O)Nc2cccc(C)c2)c1C
→ 0.9% | 0% | 7% | .
O=C(CN1C(=O)c2ccccc2S1(=O)=O)Nc1ccc(S(=O)(=O)N2CCCC2)cc1
→ -2.4% | 0% | 19% | 2

# Part of the list above in order of length of the SMILES, descending.
# Every second line gives: Rango-impB inh | miR-21 FLuc | Rango release inh | GLA inh pH 4.5
CCOC(=O)N1CCN(C(=O)c2ccc3c(=O)n(-c4ccccc4F)c(=S)[nH]c3c2)CC1
→ 4.6% | 7% | -1% | -1
Cc1ccc(C(=O)c2oc3ccccc3c2NC(=O)c2cc(-c3ccccc3O)n[nH]2)cc1
→ ? | -8% | ? | -8
CCOc1ccc(S(=O)(=O)N2CCOCC2)cc1NC(=O)C1CSC2(C)CCC(=O)N12 (stereo not drawn)
→ 0.5% | . | -10% | .
Cc1ccc(-c2nn(C)c(=O)c3ccccc23)cc1S(=O)(=O)NCCN(C)C
→ 2.7% | -4% | 20% | 4
O=C(NC(=S)Nc1ccccn1)c1cc(-c2ccccc2)nc2ccccc12
→ 0.3% | 2% | 8% | 4
CCc1ccc(N2CCN(C(=O)c3ccc(OC)c(OC)c3)CC2)cc1
→ 0.2% | 8% | -1% | -3
Cc1ccc(S(C)(=O)=O)cc1S(=O)(=O)Nc1ccccc1
→ -0.9% | -3% | 11% | -2
O=C(OCCc1ccccn1)c1cccc([N+](=O)[O-])c1
→ 3.7% | . | -1% | .
c1ccc(-n2nnnc2NCCc2c[nH]c3ccccc23)cc1
→ 0.0% | 0% | -8% | 2
CCc1ccccc1NC(=O)CSc1nnc(-c2ccco2)n1N
→ ? | 1% | 6% | 0
Fc1ccccc1Cn1nnc(-c2ccc3c(c2)OCO3)n1
→ 2.4% | -48% | 6% | 5
COC(=O)c1ccc(NC(=O)c2cccc(C)c2)cc1
→ -0.8% | -45% | -9% | .
Nc1nc(NC(=O)CCC(=O)O)nn1-c1ccccc1
→ 0.9% | 1% | 10% | 2
CC(C)(C)NS(=O)(=O)c1cccc2nsnc12
→ -0.7% | . | 5% | .
O=C1NC(=O)C(Nc2cccc3ccccc23)S1 (stereo not drawn)
→ 0.0% | -6% | -4% | -3

# 3 compounds already listed, sorted by their value in miR-21 FLuc, descending:
# Every second line gives: Rango-impB inh | miR-21 FLuc | Rango release inh | GLA inh pH 4.5
CCc1ccc(N2CCN(C(=O)c3ccc(OC)c(OC)c3)CC2)cc1
→ 0.2% | 8% | -1% | -3
CCOC(=O)N1CCN(C(=O)c2ccc3c(=O)n(-c4ccccc4F)c(=S)[nH]c3c2)CC1
→ 4.6% | 7% | -1% | -1
O=S(=O)(Nc1ncn[nH]1)c1ccc2ccccc2c1
→ 0.1% | -7% | 6% | 1

# Later entries:
# Every second line gives: Rango-impB inh | miR-21 FLuc | Rango release inh | GLA inh pH 4.5
CC(C)C(=O)NC(c1ccco1)c1ccc2cccnc2c1O (stereo not drawn)
→ 3.2% | ? | -10% | 3
CC(=O)Nc1ccc(S(=O)(=O)NCc2cc(=O)n(C)c(=O)n2C)cc1
→ 15% | 0% | 20% | .
C/C(=N\NC(=O)c1cccc2ccccc12)c1cccnc1
→ -3.0% | 9% | 11% | .
Cc1cc2c(s1)c1cnn(CC(=O)NCCc3ccccc3)c(=O)c1n2C
→ 1.8% | -4% | 7% | 3
C=CCNC(=S)N(C1CCCCC1)C1CCCCC1
→ -0.3% | -1% | 1% | 0
CCCCc1cc(=O)oc2cc(C)cc(OCC(=O)NC(Cc3ccc(Cl)cc3)C(=O)O)c12 (stereo not drawn)
→ -2.8% | -4% | 7% | .
COc1ccccc1-c1ccc(C(=O)O)o1
→ -2.7% | -21% | -8% | -5&-5
CCOc1ccccc1C(=O)NCC(=O)NCC(c1ccc(OC)cc1)N1CCOCC1 (stereo not drawn)
→ 1.6% | . | -14% | .
COc1ccc(C(C)=O)cc1COC(=O)CSCC(=O)Nc1ccc(C)cc1
→ -1.1% | . | 23% | .
CC(=O)N/C(=C/c1ccc2c(c1)OCO2)C(=O)O
→ 2.2% | 0% | -10% | -16
COC(=O)CN1C(c2ccccc2)=Nc2ccc(Cl)cc2C1c1ccccc1 (stereo not drawn)
→ 1.2% | -12% | -15% | -11
C/C(=N\S(=O)(=O)c1ccc(C)cc1)NC(=S)Nc1ccccc1
→ 1.7% | -7% | -13% | -4
O=C(NCC1CCCO1)C(c1cccs1)N(C(=O)c1ccc(-c2ccccc2)[nH]1)C1CCCC1 (stereo not drawn)
→ ? | -2% | 21% | 4
Cc1onc(-c2ccccc2)c1C(=O)c1c[nH]c(C(=O)NCc2ccccn2)c1
→ 1.9% | 6% | 11% | 3
COc1ccc(-n2ccnc2CN2CCN(C3CCCC3)C(CCO)C2)cc1 (stereo not drawn)
→ ? | 2% | -13% | -2
Cc1ccccc1C(=O)N/N=C1/SCC(=O)N1Cc1ccc2c(c1)OCO2
→ -3.1% | -12% | 3% | -3
COc1ccc(C)cc1NC(=O)C(Sc1nncn1C)c1ccccc1 (stereo not drawn)
→ 0.7% | 0% | 17% | -6
Cc1cc(C)cc(NCc2cc3c(cc2[N+](=O)[O-])OCO3)c1
→ -1.0% | -14% | -16% | 0
COc1ccc2cc(/C=C3\SC(=S)NC3=O)c(N3CCOCC3)nc2c1
→ ? | -5% | -11% | -9
COC(=O)CSc1nnc(C)n1-c1cccc(OC)c1
→ -1.6% | 0% | -3% | -15

# Only part of the results is shown; rates above refer to the full screens.
